Assay outcomes as filed in PubChem.
eIF4H inh: human eIF4H binding inhibitors, primary screen, translation initiation inhibitor project, biochemical, uHTS, fluorescence polarization | eIF4H fluorescence polarization binding assay | inhibition, % at 35 µM | 290,000 tested, 0.94% active | AID 2012, 2009;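 active means 50% or more with normal probe brightness, or confirmed in later tests; inconclusive means above 50% with abnormal brightness, or retests that disagree; inactive means below 50% or failed in later tests; about a fifth of its hits are not listed in these tables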;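 further: calls also rest on retests at 20 µM and on dose response follow-up; 0% = protein and probe with vehicle and 100% = probe without protein; strong numbers were not always called active; many hits fall short of the cut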
CSC inhib: cancer stem cell viability inhibitors, primary screen, luminescence; 300,000 tested, 1.1% active; cancer stem cell-like cells viability; inhibition, % at 7.5 µM; AID 2717, 2010;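 active means mean at 75% or more and at least half the replicates too; inconclusive means mean and replicates disagree; tested in HMLE shEcad cells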;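 further: 0% = median of negative and 100% = median of positive control wells; the first replicate is given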
UUG fidelity: modulators of yeast start codon fidelity, primary screen, whole organism, S. cerevisiae, single point, plate reader; S. cerevisiae UUG-firefly luciferase reporter, luminescence/redox ratio; activity score, % at 18.7 µM; 350,000 tested, 0.13% active; AID 602363, 2012;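 active means replicate mean at a twofold rise or more, about +100% in these data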;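 further: firefly luciferase made from a UUG start codon reports start codon fidelity; reporter light over untreated wells divided by growth signal over untreated wells; some hits fall short of that in this replicate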
Rce1 inhib: yeast Rce1p protease inhibitors, primary screen, biochemical, fluorescence, cell-free homogeneous; CAAX prenyl protease 2 (Saccharomyces cerevisiae (strain ATCC 204508 / S288c)), Q03530; yeast membranes, quenched prenylated peptide cleavage fluorescence; calls only; 290,000 tested, 0.27% active; AID 2563, 2010;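 active means fall in fluorescence gain of 50% or more versus controls, with final raw signal at or below 3038400; inconclusive means same 50% fall but final raw signal above 3038400; inactive means fall in fluorescence gain under 50%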;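 further: plate controls were neutral control wells for no effect and wells lacking membranes for full effect; tested at 10 µM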
Target sequence (Q03530 whole entry, looked up): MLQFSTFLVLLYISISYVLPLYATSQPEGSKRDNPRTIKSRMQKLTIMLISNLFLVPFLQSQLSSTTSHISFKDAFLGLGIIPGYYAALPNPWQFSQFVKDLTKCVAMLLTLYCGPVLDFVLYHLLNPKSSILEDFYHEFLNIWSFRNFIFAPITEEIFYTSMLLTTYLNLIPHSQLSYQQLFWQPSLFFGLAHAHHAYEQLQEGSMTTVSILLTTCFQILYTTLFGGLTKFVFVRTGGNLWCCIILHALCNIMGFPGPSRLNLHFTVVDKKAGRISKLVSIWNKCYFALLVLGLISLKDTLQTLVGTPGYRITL
PABP polyA inh: PABP poly(A) RNA binding inhibitors, primary screen, biochemical, fluorescence polarization, uHTS | inhibition, % at 35 µM | 290,000 tested, 1% active | AID 2014, 2009;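 active means 50% or more with normal probe brightness, or confirmed in later tests; inconclusive means above 50% with abnormal brightness, or retests that disagree; inactive means below 50% or failed in later tests; about a fifth of its hits are not listed in these tables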;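 further: calls also rest on retests at 20 µM and on dose response follow-up; controls were probe without protein and protein plus probe with vehicle; some compounds called inactive have numbers as strong as hits; many hits fall short of the cut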
MT1-MMP act inh: blockers of MT1-MMP proenzyme processing, primary screen, HT1080 RFP-PRO-GFP cells, GFP/RFP fluorescence; GFP/RFP ratio fluorescence, overnight; percent of plate control window, DMSO zero; GFP/RFP ratio change, % at 20 µM; 360,000 tested, 0.061% active; AID 651647, 2012;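 active means GFP/RFP ratio change of at least 30% with cell ATP level not reduced by more than half and red fluorescence within 50% of control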; further: strong numbers were not always called active
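Assay system – RFP-PRO-GFP reporter HT1080 cells · Compound dosing – single dose of 20 µM compound, 1% DMSO final · Incubation – overnight compound exposure at 37 °C · Measure – GFP/RFP fluorescence ratio · Benchmarks – DMSO wells and RFP-L50D-GFP cells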
HIV Env fusion: inhibitors of HIV-1 Env-driven cell-cell fusion, primary screen, HeLa-JRFL effector, CEM21 target cells, luciferase | inhibition, % at 12.3 µM | AID 651610, 2012 | 360,000 tested, 1.1% active;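 active means mean replicate inhibition score of at least 50 and every replicate individually at or above 50; inconclusive means only one of the two criteria met; inactive means mean below 50 and not all replicates reaching 50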;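 further: 0% = plate neutral controls and 100% = maraviroc near 300 nM; one replicate is shown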
eIF4H inh retest: recorded beside eIF4H inh, whose call it bears; inhibition, %; compound at 20 µM; confirmation average;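 mean of two retest wells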
PABP polyA inh retest: second read-out of PABP polyA inh, no call of its own (marks repeat the call); inhibition, %; compound at 20 µM; confirmation repeats;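 mean of two retest wells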
MT1-MMP act inh RFP: recorded beside MT1-MMP act inh, whose call it bears; RFP signal change, %; measured here: RFP expression control read;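 0 = vehicle wells; hits needed this value within 50% of zero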
An asterisk follows results filed as active; i = inactive; ? = inconclusive; . = no result given.

SMILES	eIF4H inh	CSC inhib	UUG fidelity	Rce1 inhib	PABP polyA inh	MT1-MMP act inh	MT1-MMP act inh RFP	HIV Env fusion	others
Oc1ccc2ccccc2c1C=NCc1cn2ccsc2n1	-3	-9	-25	i	0	.	.	-18
O=C(c1ccc(F)cc1)N1CCN(c2ccccn2)CC1	2	-13	-12	i	3	3	2	-4
O=C(Nc1ccc(Br)cc1Br)C1CC(=O)N(Cc2ccccc2)C1 (centres undefined)	-12	.	-1	i	-5	2	5	10
CCC(C)N(C(=O)Cn1nc(C)c([N+](=O)[O-])c1C)C1CCS(=O)(=O)C1 (centres undefined)	.	2	.	i	.	2	2	-7
O=C(c1ccc(N2CCC3(CC2)OCCO3)c([N+](=O)[O-])c1)N1CCOCC1	-7	-11	-12	i	52	-1	2	-1	eIF4H inh retest=32;PABP polyA inh retest=11
O=C(COc1ccccc1)Nc1nonc1NC(=O)COc1ccccc1	4	-7	-6	i	11	4	3	19
Cc1cn2c(nc1=O)OC1CC2OC1CO (centres undefined)	-3	2	-1	i	-6	-3	2	-13
CC1(C)CC(=O)c2cnc(N3CCc4ccccc4C3)nc2C1	-13	.	-23	i	4	-10	-21	.
C=CCNC(=O)N1CCC(c2nc3ccccc3s2)CC1	-6	-9	-14	i	-1	-4	-3	20
COC(=O)C1=C[C@@H](C(=O)OC)[C@@H]2C3=C(C(=O)[C@]2(CC(C)C)NC(=O)c2ccccc2)[C@H](C)n2c(=O)n(-c4ccccc4)c(=O)n2[C@@H]3C1	.	-3	2	i	.	-1	3	33
Cc1cc(C)c(S(=O)(=O)NCCc2cc3ccc(C)c(C)c3[nH]c2=O)c(C)c1	-5	-53	-2	i	3	.	.	11
COc1ccc(-n2nnnc2SCC(=O)Nc2nnc(C)s2)cc1OC	4	-13	-4	i	5	-1	-2	2
CCOc1ccccc1Oc1c(C)oc2cc(OC(=O)N3CCOCC3)ccc2c1=O	0	-18	-16	i	6	1	-3	-9
COc1ccc(CNC(=O)CCC(=O)N2CC(C)Oc3ccccc32)cc1 (centres undefined)	4	-8	-2	i	-4	6	2	0
CCC1CCCCN1CCCNC(=O)c1ccc2c(c1)NC(=O)CN2C (centres undefined)	6	17	-17	i	0	-2	1	-9
O=C(COC(=O)C1CC1)NCc1ccc(Cl)cc1Cl	.	7	-7	.	.	1	3	-22
CSCCC(NC(=O)c1ccc(Cl)cc1)C(=O)OCC(=O)Nc1ccc(C#N)cc1 (centres undefined)	0	.	.	i	0	-2	-3	9
CC1(C(=O)Nc2cnc3ccccc3c2)CCN1CCc1ccccc1 (centres undefined)	.	.	-19	.	.	-2	-1	33
CN1C(=O)[C@H]2[C@@H](C3CC3)N3C(=O)CN(Cc4ccccn4)C(=O)[C@@]3(Cc3ccccc3)[C@H]2C1=O	-6	-22	-4	i	6	3	0	9
COc1ccc(N2CCN(S(=O)(=O)CCNC(=O)C3CCCCC3)CC2)cc1	3	-11	-3	i	4	4	0	8
CS(=O)(=O)c1ccc(NC(=O)CCN2C(=O)C3CC=CCC3C2=O)cc1 (centres undefined)	.	-5	-11	i	.	2	2	6
COc1ccc(F)cc1S(=O)(=O)Nc1ccc(C)cc1	-6	-3	-3	i	-3	-1	-2	.
Oc1cccnc1CCc1ccccc1	1	-5	.	i	7	2	5	4
Cc1cccc(NC(=O)COc2ccc(-c3nn(C)c(=O)c4ccccc34)cc2)c1	8	3	3	.	1	-3	-7	15
Cc1cc(NC(=O)c2ccc(C#N)cc2)n(-c2ccccn2)n1	-4	-7	.	.	5	-18	-15	10
COc1ccc(NC(=O)COC(C)=O)cc1OC	3	8	.	i	-3	3	2	-3
CCOC(=O)Nc1cccc(NC(=O)c2cc(OC)cc(OC)c2)c1	-12	12	-12	i	-10	0	-2	-51
Cc1ccccc1NC(=O)c1sc(NC(=O)C2CC2)nc1C	-12	-11	7	i	17	0	1	-5
CC1(Cc2ccccc2Cl)C(=O)Nc2ccc(OC(F)(F)F)cc21 (centres undefined)	.	.	7	.	.	-3	-8	23
COc1ccc(N2C(=NC(=O)C3CCCCC3)SC3CS(=O)(=O)CC32)c(OC)c1 (centres undefined)	3	-6	-8	i	1	1	1	3

2 consecutive entries already listed, for reference:
SMILES	eIF4H inh	CSC inhib	UUG fidelity	Rce1 inhib	PABP polyA inh	MT1-MMP act inh	MT1-MMP act inh RFP	HIV Env fusion	others
Cc1ccccc1NC(=O)c1sc(NC(=O)C2CC2)nc1C	-12	-11	7	i	17	0	1	-5
CC1(Cc2ccccc2Cl)C(=O)Nc2ccc(OC(F)(F)F)cc21 (centres undefined)	.	.	7	.	.	-3	-8	23

(further entries)
SMILES	eIF4H inh	CSC inhib	UUG fidelity	Rce1 inhib	PABP polyA inh	MT1-MMP act inh	MT1-MMP act inh RFP	HIV Env fusion	others
CCCC(=O)N(CCN1CCOCC1)c1nc2c(OC)ccc(C)c2s1	-10	2	0	i	-5	-2	1	8
COc1cc(N)n(S(=O)(=O)c2ccc(C)cc2)n1	-3	-11	-10	i	5	3	10	15
O=C(O)COc1ccc(NC(=O)c2ccc(NC(=O)c3ccco3)cc2)cc1	5	-7	-12	i	6	0	-1	-19
Cc1ccc(C(=O)NC(C)c2ccc(-n3ccnc3)cc2)o1 (centres undefined)	.	.	.	i	.	1	2	3
CCC(=O)NC(c1ccc(OC)c(OC)c1)c1cc(Cl)c2cccnc2c1O (centres undefined)	22	.	.	i	11	-9	-12	?
CCC(C)c1ccc(OCc2ccc(C(=O)OC)o2)cc1 (centres undefined)	-4	-11	.	i	11	1	-10	-81
CCOC(=O)C1CCN(C2CCN(C(=O)c3oc4c(F)cccc4c3C)CC2)CC1	-7	-11	-6	i	6	-2	5	6
CN(CC(=O)Nc1ccc(Cl)cc1)C(=O)CCc1nc2sc3c(c2c(=O)[nH]1)CCCC3	.	1	-21	i	.	-7	0	-7
CC(=O)Nc1ccc(S(=O)(=O)Nc2cccc(NC(=O)C(C)(C)C)c2)cc1	-9	-9	.	i	3	0	2	30
CC1CCC(NC(=O)CN(C)S(=O)(=O)c2cccc3cccnc23)CC1 (centres undefined)	-7	3	.	i	9	-3	2	3
OC(COCc1ccccc1)CN1CCCC1 (centres undefined)	-5	-4	-16	i	-16	9	5	.
Cc1ccc(NC2CCCN(C(=O)c3ccnc(Cl)c3)C2)cc1C (centres undefined)	4	5	-13	i	-1	-3	-2	6
COC(=O)[C@@H](NC(=O)NCc1ccccc1F)C(C)C	-1	-3	-22	i	-5	-4	0	16
CCOC(=O)CCn1nc(-c2ccccc2)cc1N	4	15	-9	i	5	4	5	.
O=C(O)CCCCCCCCc1cn(CCc2c[nH]c3ccccc23)nn1	1	-6	-9	i	-4	4	6	16
CCOC(=O)c1cnc(-c2cccc(OC)c2)[nH]c1=O	-6	5	-13	i	-8	6	8	-65
C=CCNC(=S)NNC(=O)c1ccc2c(c1)OCO2	0	-11	4	i	-3	1	-1	-66
Cc1cc(Cl)c2oc(C(=O)N(C)CCCN3CCOCC3)c(C)c2c1	6	-7	-7	i	6	0	1	16
Cc1ccn2c(CNCCCn3cccn3)c(C(=O)N3CCCCCC3)nc2c1	-7	-8	.	i	0	-1	2	17
C/C(=N/NC(=O)CNC(=O)c1ccc2c(c1)OCO2)c1ccc2c(c1)CCCC2	1	.	.	i	6	5	3	2

Quoted at random: 5 entries already listed.
SMILES	eIF4H inh	CSC inhib	UUG fidelity	Rce1 inhib	PABP polyA inh	MT1-MMP act inh	MT1-MMP act inh RFP	HIV Env fusion	others
CCOC(=O)CCn1nc(-c2ccccc2)cc1N	4	15	-9	i	5	4	5	.
O=C(O)CCCCCCCCc1cn(CCc2c[nH]c3ccccc23)nn1	1	-6	-9	i	-4	4	6	16
COC(=O)[C@@H](NC(=O)NCc1ccccc1F)C(C)C	-1	-3	-22	i	-5	-4	0	16
Cc1ccc(NC2CCCN(C(=O)c3ccnc(Cl)c3)C2)cc1C (centres undefined)	4	5	-13	i	-1	-3	-2	6
CCOC(=O)c1cnc(-c2cccc(OC)c2)[nH]c1=O	-6	5	-13	i	-8	6	8	-65

The listing continues.
SMILES	eIF4H inh	CSC inhib	UUG fidelity	Rce1 inhib	PABP polyA inh	MT1-MMP act inh	MT1-MMP act inh RFP	HIV Env fusion	others
COc1ccc(CCn2c(=N)c(C(=O)N3CCN(C)CC3)cc3c(=O)n4ccccc4nc32)cc1	4	13	12	i	-7	-3	2	.
CC(C)(C)c1cc(C(=O)NNc2cc(C(F)(F)F)ccc2Cl)n(Cc2ccccc2)n1	52*	103*	.	i	31	-10	-15	25	eIF4H inh retest=60*;PABP polyA inh retest=9
Cc1csc(=Nc2c(C)n(C)n(-c3ccccc3)c2=O)n1-c1ccccc1	2	-8	.	i	-8	-4	1	5
O=C1CCNc2c(Cl)cc(Cl)cc21	51*	-11	-14	i	37	-1	2	-2	eIF4H inh retest=71*;PABP polyA inh retest=21
CCOC(=O)c1c(C)[nH]c(C)c1S(=O)(=O)N(C)CC(=O)Nc1ccccc1	-1	-10	-7	i	6	0	3	4
CCS(=O)(=O)Nc1cccc(C2=NN(S(=O)(=O)c3ccccc3)C(c3cccs3)C2)c1 (centres undefined)	-1	-7	11	i	-13	-17	-8	.
CCC(C(=O)OCC(=O)Nc1ccc2[nH]c(=O)[nH]c2c1)c1ccccc1 (centres undefined)	.	-7	6	i	.	-1	0	-71
O=C(Cc1cccs1)N1CCC(c2nc3c(nnn3Cc3ccc(F)cc3)c(=O)[nH]2)CC1	10	5	8	i	4	5	2	-18
Cc1cc2ncc(-c3ccc(Cl)cc3)c(N)n2n1	5	8	-15	i	18	0	1	-51
COc1ccc(-c2coc3c(C)c4oc(=O)c(CC(=O)O)c(C)c4cc23)cc1	84	.	-1	i	16	-2	-4	9	eIF4H inh retest=-2;PABP polyA inh retest=23
CC(C)(C)Cc1nnc(NC(=O)c2cc(-c3ccccc3)nc3ccccc23)s1	8	-9	-4	i	5	1	-7	-27
CCNc1nc(NCC)nc(OCCOC(C)=O)n1	16	-12	-10	i	6	1	-2	.
COc1ccc(-c2cc(C(=O)NCCc3ccc(S(N)(=O)=O)cc3)c3ccccc3n2)cc1	-5	8	.	i	6	-2	-4	-1
Cc1cccc(NC(=S)NC(C)C(c2cccs2)N2CCN(C)CC2)c1C (centres undefined)	-10	4	-11	i	-2	-12	-9	3
CN(C(=O)c1ccccc1[N+](=O)[O-])c1ccccc1C(=O)NCc1ccccc1	-9	-10	-3	i	12	1	-1	?
CCc1ccc(NC(=O)N2CCC(c3ccccc3)C2)cc1 (centres undefined)	2	12	-13	i	3	-7	-8	-81
CC1(c2ccc(Cl)c(Cl)c2)NC(=S)N2C1NC(=S)N2c1ccccc1 (centres undefined)	7	5	-9	i	0	-9	-3	-9
CC1CN(c2nnc(-c3ccccc3)c3ccccc23)CC(C)O1 (centres undefined)	-5	-35	.	i	-5	0	-2	-35
O=C(CN1CCc2ccccc21)Nc1ccc2c(c1)OCO2	1	-10	-11	.	7	3	3	-17
O=S(=O)(NCCNS(=O)(=O)c1cccs1)c1cccs1	5	1	-15	i	8	-5	3	.

Hits appear at their usual frequency (roughly 2.9% active in at least one column).
